Bioassay records (PubChem BioAssay)
Rango release inh: inhibitors of RanGTP-induced Rango-importin beta complex dissociation; Potency, µM (highest dose often 46.1 µM), without a hit: top-dose activity change, negative = inhibition; Biochemical FRET Rango-importin beta, RanGTP-induced dissociation; hit rate 0.071% among 340,000; O95149+P62826; active means falling FRET ratio curve, often poorly fitted, with flat reads before Ran was added; inconclusive means other falling curves, or compound fluorescence or quenching; inactive means flat or rising ratio curve;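 further: potency means the concentration at half of the fitted maximal effect; % of control where 0% means no effect; nearly all actives have a fitted effect of over 45% in size; -100% = wells without RanGTP and RCC1; the record marks most hits as doubtful in a second field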
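Quantitative HTS using a FRET biosensor: 0.1 uM Rango, 0.25 uM importin beta, 0.6 uM Ran, 2 mM GTP, 0.2 uM RCC1 final, PBS with DTT, Tween-20 and BSA. Post-read taken 45 min after Ran addition.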
Rango-impB inh: inhibitors of Rango-importin beta complex formation; Q14974; Rango CFP/YFP FRET sensor + importin beta, 45 min; Potency, µM (highest dose often 92.2 µM), without a hit: top-dose inhibition of complex formation; hit rate 0.031% among 340,000; AID 540263; active = rising FRET ratio curve, often small or poorly fitted; inconclusive = mostly compound fluorescence or quenching in the first reads; inactive = flat curves in all reads;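 further: potency means the concentration at half of the fitted maximal effect; 0% = DMSO wells and 100% = buffer wells lacking importin beta; nearly all actives have a fitted effect of over 15% in size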
Target sequence (Q14974 whole entry, looked up): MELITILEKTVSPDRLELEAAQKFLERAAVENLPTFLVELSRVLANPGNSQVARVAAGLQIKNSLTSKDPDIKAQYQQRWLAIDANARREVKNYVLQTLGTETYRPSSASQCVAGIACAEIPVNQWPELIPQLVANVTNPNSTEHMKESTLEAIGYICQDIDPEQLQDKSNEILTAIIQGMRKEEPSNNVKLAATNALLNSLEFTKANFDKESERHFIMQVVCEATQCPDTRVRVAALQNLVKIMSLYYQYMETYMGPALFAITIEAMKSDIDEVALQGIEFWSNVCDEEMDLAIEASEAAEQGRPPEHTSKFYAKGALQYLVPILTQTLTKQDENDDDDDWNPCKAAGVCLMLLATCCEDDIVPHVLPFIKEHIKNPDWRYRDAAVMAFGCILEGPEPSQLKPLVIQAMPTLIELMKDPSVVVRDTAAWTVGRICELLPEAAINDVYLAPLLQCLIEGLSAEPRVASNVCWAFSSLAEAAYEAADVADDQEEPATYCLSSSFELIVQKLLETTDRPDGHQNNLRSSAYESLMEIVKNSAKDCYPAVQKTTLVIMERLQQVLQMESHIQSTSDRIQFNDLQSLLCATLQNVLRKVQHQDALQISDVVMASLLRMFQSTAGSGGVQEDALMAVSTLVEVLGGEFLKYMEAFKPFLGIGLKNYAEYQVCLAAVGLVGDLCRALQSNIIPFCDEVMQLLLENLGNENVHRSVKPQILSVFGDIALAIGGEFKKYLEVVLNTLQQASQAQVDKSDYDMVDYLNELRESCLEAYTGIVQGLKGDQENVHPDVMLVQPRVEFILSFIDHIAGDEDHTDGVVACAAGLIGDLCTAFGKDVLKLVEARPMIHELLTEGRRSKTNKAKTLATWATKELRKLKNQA
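FRET biosensor Rango (snurportin 1 IBB between N-terminal EYFP and C-terminal Cerulean), 50 nM in PBS/1 mM DTT/0.02% Tween-20/0.1% BSA, preincubated 5 min RT with compound; 0.125 microM importin beta added, 45 min RT, CFP/YFP FRET ratio read.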
miR-21 reporter: raises the signal of a miR-21 reporter | HeLa miR-21 FLuc reporter, luciferase, 48 h | Potency, µM (series often up to 38.3 µM), without a hit: at the highest dose reporter change, positive = more light | 340,000 tested, under 10 active | AID 2288; active = well fitted rising curve with a large enough effect; inconclusive = small, poorly fitted or top-dose-only effect; inactive = no such curve, though single readings can be large or run the other way;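 further: % of control where 0% means no effect; miR-21 action dims this reporter so a rising signal means less miR-21 action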
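HeLa cells stably expressing CMV-driven firefly luciferase with a downstream miR-21 binding sequence, endogenously expressing miR-21, were treated with titrations (up to about 40uM final) for 48 hours at 37 degree Celsius. Luciferase luminescence was read after lysis.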
GLA inh pH 4.5: inhibitors of human alpha-galactosidase A at pH 4.5; 230,000 tested, under 10 active; activity change, negative = inhibition, % at 105 µM; AID 1467; purified enzyme, 4-MU-alpha-Gal fluorescence, pH 4.5; P06280; inconclusive = small, poorly fitted or top-dose-only inhibition, or a rising curve; inactive = flat fitted curve, though single readings scatter; no compound was filed as active;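 further: 0% = full activity with enzyme and -100% = basal without enzyme; dose as in the result columns while the protocol names 77 µM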
* hit, by the source's call; ? = inconclusive; / = not tested or not shown; & = joins results of further samples; [ ] = dose if it differs, or a comment.

mol	Rango release inh	Rango-impB inh	miR-21 reporter	GLA inh pH 4.5
Cc1ccc(S(=O)(=O)N2CCN(C(=O)C(C)Cn3nc(C)c(C)c3C)CC2)cc1 (centres undefined)	-1%	2.5%	1%	/
CCOC(=O)c1[nH]c(C)c(C(=O)OCc2ccccc2F)c1C	?	3.4%	16%	/
O=C(NCCCN1CCOCC1)c1sc2cc(Cl)ccc2c1Cl	1%	-4.3%	-19%	0
CCOC(=O)c1[nH]nc2c1C(=O)N(CC)C2=O	-1%	-0.2%	-6%	-10
Cc1ccc(N2NC(=O)/C(=C/c3ccc(-c4ccc(Cl)c(C(=O)O)c4)o3)C2=O)cc1C	-3%	5.2%	-1%	-19
C/C=C(/C)C(=O)OC1CC(C)(C)C[C@H]2C3=CC[C@@H]4[C@@]5(C)CCC(O[C@@H]6O[C@@H](C(=O)O)[C@@H](O)C(O[C@@H]7OC[C@H](O)[C@@H](O)[C@@H]7O[C@@H]7OC(CO)C(O)[C@@H](O)[C@@H]7O)C6O[C@@H]6OC(CO)C(O)C(O)C6O)[C@@](C)(CO)[C@@H]5CC[C@]4(C)[C@]3(C)CC(O)[C@@]12CO (some centres undefined)	-8%	-1.9%	/	/
Cc1ccccc1NCC(=O)N/N=C/c1ccc([N+](=O)[O-])cc1	0%	0.0%	0%	1
Cc1ccc(S(=O)(=O)N2CCCC(c3nc4c(nnn4Cc4ccc5c(c4)OCCO5)c(=O)[nH]3)C2)cc1 (centres undefined)	-2%	6.4%	-2%	/
O=C(CSc1nc(=O)n2ccccc2n1)NCc1ccc(F)cc1	-1%	-3.5%	/	/
CC1(C)C(=O)OC(c2cccc([N+](=O)[O-])c2)C2(CCCCC2)C1=O (centres undefined)	5%	-1.9%	0%	6
O=C(CSc1nnc(COc2ccccc2)o1)NCCc1ccccc1	-7%	-0.1%	-1%	2
N#Cc1c(NC(=O)CSCC(=O)O)sc2c1CCCC2	-3%	2.5%	10%	-5
Cc1cc(C)n2nc(Nc3ccccc3)cc2n1	13%	?	-36%	2
CCCc1cc(C(=O)Nc2ccc(C(=O)OC)cc2)cs1	-6%	-1.1%	-36%	/
CCOC(=O)CSc1nc(C)cc2c1C(=O)OC2	8%	0.5%	3%	1
CCCCN(C)CCCNC(=O)CN1C(=O)COc2ccc(S(=O)(=O)N3CCOCC3)cc21	-5%	1.1%	-6%&-5%	/
Cn1c(N)c(C(=O)COC(=O)/C=C/c2ccc(S(=O)(=O)N3CCOCC3)cc2)c(=O)n(C)c1=O	0%	0.3%	-7%	0
O=C(O)COc1ccc2c3c(c(=O)oc2c1)CCCC3	-9%	0.7%	-1%	-6
CCC1(c2ccccc2)NC(=O)N(CC(=O)Nc2ccc(S(=O)(=O)N3CC(C)CC(C)C3)cc2)C1=O (centres undefined)	-5%	-1.6%	/	/
O=Cc1sc(Nc2ccccc2)nc1Cl	?	?	4%	-3
COC(=O)CSc1[nH]c2cc(C)ccc2c1[N+](=O)[O-]	-9%	-6.3%	-5%	-2
CSc1cccc(NC(=O)C2CCCN(S(=O)(=O)c3ccc(F)cc3)C2)c1 (centres undefined)	18%	-1.8%	25%	-15
COc1ccc(C(=O)COc2ccc(F)cc2)c(O)c1	-8%	0.0%	-41%	2
O=C1CC(NCCc2ccccc2)C(=O)N1CCc1ccccc1 (centres undefined)	0%	1.1%	-4%	-2
Oc1ccc(-c2cn3ccccc3n2)cc1O	8%	0.1%	-77%	/
Oc1c(Br)cc(Br)c2cccnc12	0%	3.6%	/	3
Cc1ccccc1-n1c(SCC(=O)N/N=C/c2ccccc2OCC(=O)O)nc2ccccc2c1=O	1%	-2.1%	-8%	-7
COc1cc(C2NC(=O)NC3=C2C(=O)OC3)cc(OC)c1OC (centres undefined)	0%	-0.3%	1%	4
COc1ccc2cc(S(=O)(=O)c3ccccc3)c(=O)oc2c1	-3%	0.8%	1%	?
Cc1nn(-c2ccccc2)c(N2CCCC2)c1/C=C1\N=C(c2ccccc2)OC1=O	2%	-0.3%	-3%	4
COc1ccc(NC(=O)Nc2nnc(Cc3ccc(OC)c(OC)c3)s2)cc1	-9%	0.5%	2%	/
Cc1ccc2nc(-c3ccc(NC(=O)CN4CCN(c5ccccn5)CC4)cc3)sc2c1	4%	-1.7%	-51%	-2
O=c1cc(C(F)(F)F)nc(SC/C=C/c2ccccc2)[nH]1	0%	1.7%	-4%	/
CN(C)/C=C1\C(=O)N(C)N=C1C(F)(F)F	24%	-0.4%	1%	1
CCN(CC)CCCNC(=O)c1cc2c(Cl)nc3ccccc3c2s1	5%	0.6%	-8%	-5[21.1 µM]
CN(C)/C=N/c1nc2ncc(-c3ccc(Cl)cc3)c(/N=C/N(C)C)n2n1	-6%	2.4%	1%	1
CC(=O)NCC(=O)OCC(=O)c1ccc(Cl)cc1	5%	2.8%	0%	-1
COc1ccc(CCC(=O)Nc2cccc(S(=O)(=O)N(C)C)c2)cc1OC	15%	1.6%	2%	-2
O=C(CCCC(=O)OCC(Cl)=C(Cl)Cl)Nc1cccc2ccccc12	2%	3.5%	-7%	-12
Cc1cccc(NC(=O)Cn2cc(C=O)c3ccccc32)c1	12%	2.7%	10%	/
CCCCn1c(N)c(N(CC(C)C)C(=O)C2CC(=O)N(c3ccccc3C(C)CC)C2)c(=O)[nH]c1=O (centres undefined)	0%	0.4%	/	/
CN(C)S(=O)(=O)c1cc(NC(=O)CN2CCN(c3ccccc3F)CC2)ccc1Cl	-22%	0.2%	8%	-2
CSc1ccccc1OCc1cc(C(=O)NCCc2nc(C)cc(C)n2)no1	-1%	-0.9%	-35%	/
CC(NCCC1(Cc2ccccc2Cl)CCOC(C)(C)C1)c1cccs1 (centres undefined)	0%	0.7%	11%	-18
COc1ccc(C2N(S(=O)(=O)c3ccccc3)CCN2S(=O)(=O)c2ccc(C)cc2)cc1 (centres undefined)	-3%	-2.2%	11%	-3
CCOc1ccc(NC(=O)CN(C)C(=O)C2CC(=O)N(c3cccc(SC)c3)C2)cc1OCC (centres undefined)	8%	6.5%	/	/
CCN(CC(=O)O)S(=O)(=O)c1cc(Cl)ccc1Cl	1%	2.8%	-9%	3
CC(C)C[C@H]1CN=C(Nc2ccccc2)N1CC1CCCCCC1	-1%	1.4%	/	/
Cc1ccc(CNC(=O)C2CC3Cn4c(nc5cc(C)c(C)cc54)C3N2C)o1 (centres undefined)	-16%	-2.8%	-3%	0
CCOc1ccc(C2C(C(=O)c3ccco3)=C(O)C(=O)N2CCN2CCOCC2)cc1 (centres undefined)	?	?	-8%	/

New compounds follow:
mol	Rango release inh	Rango-impB inh	miR-21 reporter	GLA inh pH 4.5
CCN(Cc1ccccc1)C(=O)COC(=O)c1n[nH]c2ccccc12	39%	3.2%	1%	10
CCn1c(CNC(=O)Cc2ccc(OC)cc2)nnc1SCC(=O)c1ccccc1	-1%	-0.9%	0%	8
O=C(COc1ncnc2c(Cl)cc(Cl)cc12)NC1CCCCCC1	16%	0.6%	-3%	-1
COc1ccc(CCCC(=O)N/N=C/c2ccccc2OC)cc1	-24%	-7.5%	-1%	1[21.1 µM]
Cc1ccc(N(C(C)C(=O)N2CCCC2)S(C)(=O)=O)cc1 (centres undefined)	2%	-0.8%	1%	/
O=C(CSC1=NS(=O)(=O)c2cc(F)ccc2N1)Nc1ccccc1	5%	-1.1%	/	/
Clc1cccc(CN2CCc3c([nH]c4ccccc34)C2)c1	-7%	?	27%	/
O=C(CN1C(=O)COc2ccc(S(=O)(=O)N3CCCCC3)cc21)NCc1ccc(F)cc1	-2%	-0.3%	-8%&-12%	/
COc1ccc(NC2CC(=O)NC2=O)cc1 (centres undefined)	-5%	-1.1%	0%	14
COc1cc(/C=N/Nc2ccnc(=O)[nH]2)ccc1O	-7%	-0.5%	-29%	/
O=C(O)c1cc(Cl)ccc1-c1ccc(/C=C/c2cc(C(F)(F)F)[nH]c(=O)n2)o1	?	?	1%	-4
NC(=O)C1CCN(C(c2ccccc2Cl)c2nnnn2Cc2ccc3c(c2)OCO3)CC1 (centres undefined)	-8%	-1.6%	-2%	0
COc1ccc(CN2CCC(CNS(=O)(=O)c3cccc(C(F)(F)F)c3)CC2)cc1	3%	-1.1%	6%	/
CN(C)/C=N/c1nc(Sc2ccc(C(F)(F)F)cc2[N+](=O)[O-])n[nH]1	1%	0.8%	3%	-6
O=C(CSc1nnc(-c2ccco2)n1-c1ccccc1)NCc1ccco1	0%	0.0%	-3%	10
COC(=O)CSc1ccnc2cc(Cl)ccc12	-7%	4.0%	-2%	-3
CCOC(=O)c1c(C)c(C(=O)NCc2cccs2)c(C)n1C	14%	0.7%	-20%	3
COc1ccc2c(c1)C(C1C(=O)CCCC1=O)c1ccccc1O2 (centres undefined)	-6%	-0.6%	-13%	13
O=C(Nc1ccccc1N1CCCC1)c1ccc(Cl)cc1Cl	-1%	2.7%	-10%	3
CCOc1ccc(NC(=O)CN(C)C(=O)Cc2c[nH]c3ccccc23)cc1OCC	-9%	-0.2%	/	/
Cc1cccnc1NC(=O)Cn1nc([N+](=O)[O-])cc1C	12%	-0.9%	0%	-5
CC(=O)Nc1ccc(-c2csc(NC(C)c3ccccc3)n2)cc1 (centres undefined)	-4%	-0.7%	0%	-4
CC(C)[C@H](NC(=O)c1ccccc1)C(=O)OCC(=O)c1c(N)n(C)c(=O)n(C)c1=O	6%	-1.3%	/	/
COc1ccc(CCNC(=O)C2CCC(CNS(=O)(=O)c3ccccc3)CC2)cc1OC (centres undefined)	/	/	0%	-8
CCOc1ccc(NC(=O)[C@@H](NC(=O)c2ccccc2Br)C(C)C)cc1	9%	5.1%	-1%	5

Given with two lines to a compound: entries from further up
Second line of a record: Rango release inh	Rango-impB inh	miR-21 reporter	GLA inh pH 4.5
Clc1cccc(CN2CCc3c([nH]c4ccccc34)C2)c1
→ -7%	?	27%	/
O=C(CN1C(=O)COc2ccc(S(=O)(=O)N3CCCCC3)cc21)NCc1ccc(F)cc1
→ -2%	-0.3%	-8%&-12%	/
COc1ccc(NC2CC(=O)NC2=O)cc1 (centres undefined)
→ -5%	-1.1%	0%	14
COc1cc(/C=N/Nc2ccnc(=O)[nH]2)ccc1O
→ -7%	-0.5%	-29%	/

Going on with the list.
mol	Rango release inh	Rango-impB inh	miR-21 reporter	GLA inh pH 4.5
COc1ccc(NC(=S)Nc2ccc(N)c([N+](=O)[O-])c2)cc1	-4%	-1.4%	-51%	-1
COc1cccc(=O)c2c(C)n(C)c(C)c12	-8%	?	-2%	2
CC(Oc1ccc2c(-c3ccccc3)cc(=O)oc2c1)C(=O)NCCCN1CCOCC1 (centres undefined)	0%	?	-11%	/
O=C1N=C(N2CCCCC2)S/C1=C\c1ccc(Cl)cc1	-1%	-7.0%	-13%	/
O=C(C(=O)N1CCN(c2ccccc2Cl)CC1)c1c[nH]c2ccccc12	18%	0.0%	-7%	/
CC(=C/c1ccccc1)/C=N/NC(=O)c1cnccn1	5%	1.1%	-43%	-15

For reference, some entries already given:
mol	Rango release inh	Rango-impB inh	miR-21 reporter	GLA inh pH 4.5
COc1ccc(C(=O)COc2ccc(F)cc2)c(O)c1	-8%	0.0%	-41%	2
O=C1CC(NCCc2ccccc2)C(=O)N1CCc1ccccc1 (centres undefined)	0%	1.1%	-4%	-2

Entries listed so far containing bromine (2):
mol	Rango release inh	Rango-impB inh	miR-21 reporter	GLA inh pH 4.5
Oc1c(Br)cc(Br)c2cccnc12	0%	3.6%	/	3
CCOc1ccc(NC(=O)[C@@H](NC(=O)c2ccccc2Br)C(C)C)cc1	9%	5.1%	-1%	5

This is a subset. The share of hits here may be higher or lower than overall.
